Screens: PubChem BioAssay, Broad Institute
Tgondii IFNg: inhibitors of Toxoplasma gondii growth with IFN-gamma; AID 1259416; 69,000 tested, 3.8% active; Toxoplasma gondii growth in IFN-gamma-treated host cells; hits give low values; reference of the scale not given here; activity change, negative = inhibition, %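 (about 20 µM by stock and volumes)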;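 active = below -70%; inconclusive = fit judged invalid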;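 also: host cells are HeLa cells infected with Toxoplasma gondii; parasite growth read as luciferase light; one replicate is shown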
The depositor's hits bear a star; ? = inconclusive. These rows are one share of the data (hit frequency here may not be typical).

#	compound	Tgondii IFNg
1	CCOC(=O)c1nc(C)nc(Sc2n[nH]c(-c3cc(Cl)cc(Cl)c3)n2)c1C	-63.3
2	O=C(Nc1ccc(-c2nc(-c3ccccc3)co2)cc1)Nc1ccc(F)cc1F	49.1
3	Cn1nc(-c2ccccn2)c2c1NC(=O)CC2c1csc(-c2ccccc2)n1 (stereo not given)	-11.1
4	CC[C@H]1CN(C(=O)CCc2cnccn2)CC[C@@]1(C)O	-44.1
5	Cc1ncn(C23CC4CC(CC(C(=O)N5CCCN(c6ccccn6)CC5)(C4)C2)C3)n1	4.3
6	Cc1cc(-c2ccccc2)c(C#N)c(N)n1	62.1
7	Cn1c(CC2CCNCC2)nnc1CN1CCc2c([nH]c3ccccc23)C1	5.4
8	CCOC(=O)c1cnc(SCC(=O)c2cc(Cl)c(Cl)s2)nc1N	102.0
9	CCC1C=CCC(C(=O)O)C1C(=O)Nc1ccc(C(=O)N2CCOCC2)cc1 (stereo not given)	-10.3
10	Cc1ccc(-c2nc(CCNC(=O)c3cccc(F)c3)cs2)cc1	239.6
11	Clc1ccc(C2C=C(c3ccccc3)Nc3ncnn32)cc1 (stereo not given)	-85.4*
12	COC(=O)CCC(=O)N1CCc2c([nH]c3ccccc23)C1c1ccc(SC)cc1 (stereo not given)	56.6

Next part, overlapping the part above by two compounds.
#	compound	Tgondii IFNg
11	Clc1ccc(C2C=C(c3ccccc3)Nc3ncnn32)cc1 (stereo not given)	-85.4*
12	COC(=O)CCC(=O)N1CCc2c([nH]c3ccccc23)C1c1ccc(SC)cc1 (stereo not given)	56.6
13	O=C(O)C1CC(N2CCCC2)CCN1C(=O)CCc1ccccc1 (stereo not given)	-4.4
14	O=C(CC1COCCN1)N1CCN(C/C=C/c2ccccc2)CC1 (stereo not given)	-3.3
15	CC(C)c1nnc(CN2CCCC(N3CCCC3=O)C2)o1 (stereo not given)	7.8
16	Cc1ccccc1CN1CCCC12CCCN(C(=O)c1cscn1)C2 (stereo not given)	-35.3
17	CCOc1ccc(-c2nc(Cn3nnc(C(=O)Nc4cccc(C(F)(F)F)c4)c3C)c(C)o2)cc1	125.2
18	NC(Cc1cccc2nsnc12)C(=O)O (stereo not given)	8.9
19	COCCN1CCO[C@H]2CN(C(=O)c3ccc4[nH]ccc4c3)CC[C@@H]2C1	3.9
20	COCCN(C)C(=O)c1ccc2nnc3nc(C)n(CCOC)c3c2c1	7.8
21	O=c1[nH]c2cc(Cl)c(Cl)cc2[nH]c1=O	-72.1*
22	COc1cccc(NC(=O)N[C@@H]2C=C[C@@H](CC(=O)NCc3ccncn3)O[C@@H]2CO)c1	-46.9
23	COc1ccc(-c2nc(CNS(=O)(=O)c3ccccc3)c(C)o2)cc1	89.9
24	C[C@H]1[C@H](OC(=O)CCC(=O)O)O[C@@H]2O[C@@]3(C)CC[C@H]4[C@H](C)CC[C@@H]1[C@@]24OO3	-79.9*
25	CCCCCCCCCCCCCCCCCCCCCC(=O)Nc1ccn([C@@H]2O[C@H](CO)[C@@H](O)[C@@H]2O)c(=O)n1	13.5
26	Cc1ccc2c(c1C)-n1cccc1C1(CCN(C(=O)c3ccccc3C(F)(F)F)CC1)N2	38.1
27	COc1ccc(OCC(O)Cn2cnc(-c3ccc(Br)cc3)c2)cc1 (stereo not given)	4.8
28	CN(Cc1cc(-c2ccccc2)no1)Cc1cccc2nonc12	-1.5
29	CCN(CC)Cc1cnc2c(C(=O)N3CCc4sccc4C3)cnn2c1	6.0
30	CCN1C(=O)CCc2cc(NS(=O)(=O)c3cccc(Br)c3)ccc21	46.5
31	CCCC(=O)N1CC[C@@H]2Oc3ccccc3S(=O)(=O)N(CCOC)[C@@H]2CC1	-2.2
32	COc1ccccc1/C=C/CN1C[C@@H](c2ccc(NC(C)=O)cc2)[C@@]2(CCCC(=O)N2)C1	-3.4
33	Cc1nc(-c2nc(C(=O)NCC3CCCO3)c3ccccn23)cn1Cc1ccc(F)cc1F (stereo not given)	18.4
34	CCN(Cc1cnc(C)nc1)c1cccc(OCCN2CCOCC2)c1	55.8
35	O=C(NCCCn1ncc2ccccc21)c1n[nH]c2c1CCC2	6.9
36	COCC(=O)N1CCCC1c1nnn2cc(C3CC3)ccc12 (stereo not given)	9.5
37	CCCC(=O)Nc1ccc2c(c1)OC[C@H](C)N(CC1CCOCC1)C[C@H](C)[C@@H](OC)CN(C)C2=O	343.9
38	Cc1nc(CN(C)C(=O)COc2ccc(F)cc2)no1	3.3
39	Cc1cc(CNc2nccc(N3CCC(O)CC3)n2)c2[nH]c(C)c(C)c2c1	-2.0
40	c1ccc(CCCNc2nc(-c3cccnc3)nc3c2CCNC3)cc1	-28.8
41	CN1CCN(C(=O)c2cc3cccnc3n(Cc3ccc(F)cc3)c2=O)CC1	27.6
42	Cc1ccc(-c2nc3c(s2)CN(S(=O)(=O)c2ccccc2C)CC3)cc1	-89.7*
43	CC(=O)Nc1ccc2[nH]c(C)c(CC=C(Cl)Cl)c(=O)c2c1	2.3
44	O=C(C[C@H]1C=C[C@@H](NC(=O)C2CCC2)[C@H](CO)O1)NC1CCCCC1	-8.3
45	Cc1ccc(-n2c(SCc3nc(-c4ccccc4Cl)oc3C)nc3c(=O)[nH]cnc32)cc1	-35.5
46	CCc1ncnc2c1CCN(c1ncc(F)cn1)CC2	8.0
47	CCc1nc(SCC(=O)NC(C)Cc2ccncc2)n[nH]1 (stereo not given)	1.8
48	NC(=O)c1nc(F)c[nH]c1=O	33.2
49	NCC[C@H]1CC[C@@H](NC(=O)NC2CCCCC2)[C@H](CO)O1	-35.9
50	Cc1nc(CN2CCC3(CC2)COCCN3S(C)(=O)=O)cs1	-5.5
51	CCCN1C[C@H](C)[C@H](OC)CN(C)C(=O)c2cc(NS(=O)(=O)c3ccccc3)ccc2OC[C@H]1C	95.9
52	O=C(C[C@H]1CC[C@@H]2[C@H](COC[C@@H](O)CN2C(=O)Nc2ccc(F)cc2)O1)NC1CCC1	-23.6
53	S=C1SCN(Cc2cccnc2)CN1Cc1cccnc1	-2.3
54	CN1CC(=O)N(c2ccccc2)CC12CCN(C(=O)c1cccs1)C2 (stereo not given)	-1.9
55	Cc1ccc2c(c1)NC1(CCN(C(=O)c3ccccc3F)CC1)c1cccn1-2	14.3
56	CCCc1cc(CNC(=O)c2cnn(-c3ccc(F)cc3)c2)on1	-23.0
57	Cc1nc(C2CCCN(S(C)(=O)=O)C2)sc1Br (stereo not given)	38.6
58	O=c1oc(Nc2ccccc2)nc2ccccc12	149.9
59	OC[C@@H]1[C@@H](c2ccccc2)C2(CN(Cc3ccc4c(c3)OCO4)C2)N1Cc1ccccc1	-60.3
60	O=C(Nc1cccc(OCCN2CCOCC2)c1)c1n[nH]c2c1CCCCCC2	184.9

The final five records of the part before come first, to join the parts:
#	compound	Tgondii IFNg
56	CCCc1cc(CNC(=O)c2cnn(-c3ccc(F)cc3)c2)on1	-23.0
57	Cc1nc(C2CCCN(S(C)(=O)=O)C2)sc1Br (stereo not given)	38.6
58	O=c1oc(Nc2ccccc2)nc2ccccc12	149.9
59	OC[C@@H]1[C@@H](c2ccccc2)C2(CN(Cc3ccc4c(c3)OCO4)C2)N1Cc1ccccc1	-60.3
60	O=C(Nc1cccc(OCCN2CCOCC2)c1)c1n[nH]c2c1CCCCCC2	184.9
61	Cc1cccnc1-n1cccc1CN1CCCC(CO)C1 (stereo not given)	110.6
62	CCOCC1CN(C(=O)N2CCCC2)Cc2cnn(C)c21 (stereo not given)	4.7
63	COc1cccc(OCC(O)CO)c1 (stereo not given)	-5.4
64	CCC(=O)Nc1ccc2c(c1)C(=O)N(C)C[C@H](OC)[C@@H](C)CN(C(=O)Cc1cccnc1)[C@H](C)CO2	36.1
65	CCn1ncnc1CN1CCC(c2ccnc(-c3ccncc3)c2)C1 (stereo not given)	-6.4
66	CN1CCN2CCN(S(=O)(=O)N3CCCC3)CC2C1=O (stereo not given)	-4.4
67	Cc1nc2c(C)cccn2c1C(=O)Nc1ncc(-c2ccc(F)cc2)n1C	-21.9
68	CC(C)C(=O)N1CC2CN(CCCc3ccccc3)C2C1 (stereo not given)	-6.9
69	CC(C)CN1CCS(=O)(=O)[C@H]2CCN(C(=O)C3CC3)CC[C@@H]21	-0.5
70	CCCc1nc(NCc2nc(-c3ccccc3)n[nH]2)c2cnn(C)c2n1	-34.2
71	COCC1(C(=O)NCCS(=O)(=O)N2CCCC2)CCC1	50.3
72	CCn1cc(S(=O)(=O)NCC(c2ccc3c(c2)OCO3)N(C)C)cn1 (stereo not given)	124.2
73	COc1cc(CCC(=O)N2CCN(C)C(=O)C(Cc3ccccc3-c3ccccc3)C2)on1 (stereo not given)	1.4
74	COc1ccc(C2Nc3ccccc3-n3cccc32)cc1 (stereo not given)	32.3
75	S=c1[nH]nc(-c2ccncc2)n1-c1cccc(Cl)c1	14.7
76	O=C(CO)N1CCCc2ccccc2C1c1ccnc(Oc2cccnc2)c1 (stereo not given)	-5.8
77	COCC(=O)N1CC[C@H]2[C@H](CO)Nc3ccc(-c4ccc(C(=O)N(C)C)cc4)cc3[C@H]21	3.8
78	CC1(C)C2CCC1C(CS(=O)(=O)Oc1cccc(-n3cnnn3)c1)C2=O (stereo not given)	-0.9
79	Cc1ccc(NC(=O)N2CCC(c3nc(C(=O)N4CCOCC4)c(C)o3)CC2)cc1	-11.2
80	O=C(Cc1ccccn1)N1CC(=O)N2[C@H](CO)[C@@H](c3ccc(C#CCC4CCCC4)cc3)[C@@H]2C1	-38.4
81	Cc1ccc(CN2CC[C@@H]3[C@@H]2CC(=O)N3c2ccsc2)o1	13.5
82	Cc1cc(C)cc(C(=O)NCCc2sc(-c3cccc(F)c3)nc2C)c1	-10.9
83	O=C(C[C@H]1CC[C@H]2[C@@H](COC[C@H](O)CN2C(=O)Nc2cc(Cl)cc(Cl)c2)O1)N1CCOCC1	13.0
84	COc1ccc(-c2nc(SCC(=O)N3CCN(c4ccccc4OC)CC3)n[nH]2)cc1	21.2
85	O=S(=O)(c1cccc(F)c1)N1CC[C@H]2[C@@H]1CCN2CC1CC1	-41.4
86	CCN(C/C=C/c1ccccc1)C(=O)c1cccc2cnccc12	-3.8
87	Cc1ccc(-c2csc(C(N)=O)c2)c2cccnc12	-50.9
88	Cc1ccccc1CN(CCO)C(=O)c1c(Cl)c(C)nn1C	12.3
89	CC(C)(C)[S@](=O)N1Cc2cc(C(=O)NC3CCC3)nc(-c3cccc(Br)c3)c2[C@@H]1CCO	-74.9*
90	COc1cc(COC2CN(C(=O)c3csc(C(C)=O)c3)CC(=O)N(C(C)C)C2)cc(OC)c1 (stereo not given)	4.5
91	COCCN1C(=O)CCC12CCN(C(=O)COC)CC2	0.4
92	CC(C)CN1CC[C@H]2[C@H](CC1)S(=O)(=O)CCN2C(=O)c1ccccc1	3.9
93	COc1ccc(C2=NC3(CCN(C(C)=O)CC3)NC(c3ccccc3O)C2)cc1 (stereo not given)	85.4
94	COc1ccc(C(=O)N2CCN(CCSc3ccccc3)CC2)cc1	7.7
95	Cc1ccccc1-c1ccc2c(c1)O[C@H](CN(C)C(=O)Nc1ccc(C(F)(F)F)cc1)[C@@H](C)CN([C@@H](C)CO)S2(=O)=O	?
96	O=C(Cc1cccnc1)c1cc2ccc(-c3ccc(F)cc3)cn2c1-c1cocn1	1.6
97	O=S(=O)(c1ccccc1)N1CCc2c([nH]c3ccccc23)C1c1cc(F)ccc1F (stereo not given)	-42.6
98	CCC(=O)N(C)C[C@@H]1[C@@H](c2ccccc2)[C@H](CO)N1Cc1cccnc1	15.9
99	CCCCN(C)CCCNC(=O)C1=C(C)C(=O)OC12CCN(S(=O)(=O)CC)CC2	17.2
100	CC(=O)N1CCC2(CC1)CC(NC1CCOCC1)c1ccccc1O2 (stereo not given)	-30.2
101	C[C@H](CO)N1C[C@H](C)[C@@H](CN(C)C(=O)Cc2ccccc2)OCCCC[C@H](C)Oc2ccc(NS(C)(=O)=O)cc2C1=O	212.7
102	CCN(CC)c1cc(N2CC(N3CCCCC3C)C2)nc(N)n1 (stereo not given)	-7.2
103	O=C1NC(c2ccc3c(c2)OCO3)C(C(=O)c2ccccc2)C(O)(C(F)(F)F)N1 (stereo not given)	15.0
104	C[C@@H]1CCCCO[C@@H](CN(C)Cc2ccc3c(c2)OCO3)[C@H](C)CN([C@@H](C)CO)C(=O)c2cc(NS(=O)(=O)c3cn(C)cn3)ccc2O1	305.3
105	Cc1ncc(CO)c(CN(C)Cc2cc(C(C)(C)C)n[nH]2)c1O	-48.2
106	COc1ccc(-c2ncnc3c2c(C(=O)N2CCCC2)c2ccccn23)cc1	-50.4
107	CC1(C(=O)NC(c2ccncc2)c2ccc(Cl)cc2)CCCO1 (stereo not given)	-2.5
108	CN1[C@H](C(=O)Nc2sc3c(c2C(N)=O)CCCC3)C[C@H](c2ccco2)NS1(=O)=O	18.9
109	Cc1ccc(-c2nnc(-c3nc(NCCc4cnc[nH]4)c4ccccc4n3)o2)cc1	-65.7
110	O=C(c1ccoc1)N1CC[C@@H]2[C@@H]1CCN2S(=O)(=O)C1CC1	0.7
111	O=C(c1cccc(F)c1)N1CCN(S(=O)(=O)c2cc3c4c(c2)CCC(=O)N4CCC3)CC1	-36.7
112	CC(=O)N1C(=O)/C(=N\N2C(=O)c3ccccc3C2=O)c2cc(C)c(Br)cc21	-26.3
113	O=C(C1=Cc2ccccc2OC=C1)N1CCOC(c2ccc(F)cc2)C1 (stereo not given)	-21.5
114	CCc1ccc(NC(=O)Nc2ccc(-c3nc(-c4ccc(C)cc4)co3)cc2)cc1	24.1
115	CCCc1nn(C)cc1C(=O)NCC(=O)OCC	-15.2
116	CCC(C)NC(=O)Cn1c(=O)cc(-c2nc(C3CC3)no2)c2ccccc21 (stereo not given)	-29.5
117	CN(C)CCN1[C@@H]2CCN(C(=O)c3ccn[nH]3)CC[C@@H]2Oc2ccccc2S1(=O)=O	6.2
118	Cc1cc(C)nc(CN2C[C@H]3OC(=O)N(CCCN4CCOCC4)[C@H]3C2)n1	7.1
119	CO[C@@H]1CCN(CC2CCOCC2)[C@H]2CN(Cc3ccncc3)C[C@@H]12	9.1
120	CC(O)CN(Cc1ccc(O)cc1)Cc1ccc2c(c1)OCO2 (stereo not given)	-0.1
